# High-throughput results: PubChem, National Center for Advancing Translational Sciences (NCATS)
# miR-21 reporter – raises the signal of a miR-21 reporter; HeLa miR-21 FLuc reporter, luciferase, 48 h; 340,000 tested, under 10 active; Potency, µM (series often up to 38.3 µM), without a hit: top-dose reporter change, positive = more light; active = well fitted rising curve with a large enough effect; inconclusive = small, poorly fitted or top-dose-only effect; inactive = no such curve, though single readings can be large or run the other way;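 also: % of control where 0% means no effect; miR-21 action dims this reporter so a rising signal means less miR-21 action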
#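 Luminescence from a firefly luciferase reporter carrying a miR-21 binding site downstream, stably expressed under a CMV promoter in HeLa cells that make miR-21 endogenously, reports miRNA modulation after 48 h compound exposure up to approximately 40uM final.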
# Rango-impB inh – inhibitors of Rango-importin beta complex formation | Potency, µM (highest dose often 92.2 µM), without a hit: top-dose inhibition of complex formation | Rango CFP/YFP FRET sensor + importin beta, 45 min | 0.031% of 340,000 active | Q14974; active = rising FRET ratio curve, often small or poorly fitted; inconclusive = mostly compound fluorescence or quenching in the first reads; inactive = flat curves in all reads;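 also: potency is read from the fitted curve at half-maximal effect; 0% = DMSO wells and 100% = buffer wells lacking importin beta; nearly all actives have a fitted effect of over 15% in size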
#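 FRET biosensor (snurportin 1 IBB flanked by EYFP and cerulean), 50 nM, with compound 5 min, then 0.125 microM importin beta in PBS, 1 mM DTT, 0.02% Tween-20, 0.1% BSA. CFP/YFP ratio read after 45 min at room temperature; pre-read flags interference.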
# GLA inh pH 4.5 – blocks human alpha-galactosidase A at pH 4.5; 230,000 tested, under 10 active; purified enzyme, 4-MU-alpha-Gal fluorescence, pH 4.5; AID 1467; P06280; activity change, negative = inhibition, % at 105 µM; inconclusive = small, poorly fitted or top-dose-only inhibition, or a rising curve; inactive = flat fitted curve, though single readings scatter; no compound was filed as active;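 also: 0% = full activity with enzyme and -100% = basal without enzyme; dose as in the result columns while the protocol names 77 µM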
# Target sequence (P06280 whole entry, looked up): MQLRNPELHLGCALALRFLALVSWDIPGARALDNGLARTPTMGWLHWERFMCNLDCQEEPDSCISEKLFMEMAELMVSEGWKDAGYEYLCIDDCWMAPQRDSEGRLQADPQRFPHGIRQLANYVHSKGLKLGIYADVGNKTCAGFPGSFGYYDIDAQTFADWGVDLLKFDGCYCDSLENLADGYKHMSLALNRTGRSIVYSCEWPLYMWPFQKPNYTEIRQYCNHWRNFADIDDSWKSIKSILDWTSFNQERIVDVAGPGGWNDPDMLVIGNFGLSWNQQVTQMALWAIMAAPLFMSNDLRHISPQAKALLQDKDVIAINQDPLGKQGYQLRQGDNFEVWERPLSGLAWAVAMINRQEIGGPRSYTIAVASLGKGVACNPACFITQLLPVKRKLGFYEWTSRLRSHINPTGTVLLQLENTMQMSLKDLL
# Rango dissoc inh – inhibitors of RanGTP-induced Rango-importin beta complex dissociation; AID 540253; Potency, µM (series often up to 46.1 µM), for the others: at the highest dose activity change, negative = inhibition; O95149+P62826; Biochemical FRET Rango-importin beta, RanGTP-induced dissociation; 0.071% of 340,000 active; active means falling FRET ratio curve, often poorly fitted, with flat reads before Ran was added; inconclusive means other falling curves, or compound fluorescence or quenching; inactive means flat or rising ratio curve;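 also: potency is read from the fitted curve at half-maximal effect; % of control where 0% means no effect; nearly all actives have a fitted effect of over 45% in size; -100% = wells without RanGTP and RCC1; the record marks most hits as doubtful in a second field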
#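 Compounds preincubate 5 min with complex of recombinant Rango and importin beta in PBS with 1 mM DTT. Ran (0.6 uM) loaded with 2 mM GTP plus 0.2 uM RCC1 starts dissociation; FRET is recorded 45 min later.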
# Numbers without * were called inactive; ? = inconclusive; nt = not tested or not shown; & = joins results of further samples. An excerpt (hit frequency here may not be typical).
# Below each compound – miR-21 reporter	Rango-impB inh	GLA inh pH 4.5	Rango dissoc inh
CN(C)c1ccc(/C=C2\CCCc3c2nc2ccccc2c3C(=O)O)cc1
    -67%	?	nt	?
CCOC(=O)c1[nH]c(CSc2nnc(-c3ccncc3)n2CCOC)c(C(=O)OCC)c1C
    -8%	-0.4%	2	-21%
C=CCN(c1ccccc1OC)S(=O)(=O)c1cccc(C(=O)NCC(c2ccc(OC)cc2)N2CCCC2)c1 (stereo not drawn)
    nt	2.1%	nt	-35%
CCS(=O)c1scc(-c2ccc(Cl)cc2)c1C#N (stereo not drawn)
    -13%	-3.7%	-3	2%
CCOC(=O)CCCCCCCCC(=O)Nc1ccc(-n2[nH]c(=O)cc2C)cc1
    nt	0.4%	nt	6%
N/C(Cn1cncn1)=N\NC(=O)C(=O)Nc1ccccc1
    -9%	2.0%	3	0%
O=C1C2C3C=CC(C2C(=O)N1c1ccccc1O)C1C2C(=O)N(c4ccccc4O)C(=O)C2C31 (stereo not drawn)
    1%	14%	-7	-8%
CN1C(=O)C2C=CC1C1C(=O)N(c3ccccc3)C(=O)C21 (stereo not drawn)
    -1%	0.3%	-3	-2%
O=C(NCc1ccccc1F)C1CCCN(S(=O)(=O)c2ccc(-n3cnnn3)cc2)C1 (stereo not drawn)
    -1%	-3.5%	nt	-2%
COc1ccc2c(c1)C(=O)/C(=C/C=C/c1ccccc1)CC2
    -11%	-0.3%	5	-1%
COc1ccc(C(CNC(=O)c2ccc(S(=O)(=O)N(C)C)cc2)N2CCCC2)cc1 (stereo not drawn)
    3%	-1.0%	0	-11%
COC(=O)C(N)Cc1ccc(O)cc1 (stereo not drawn)
    -7%	0.3%	11	6%
COCCn1c(SCC(=O)Nc2cccc(F)c2)nc2c([nH]c3ccccc32)c1=O
    6%	3.9%	nt	1%
Cc1cc(C(C)(C)C)cc(C)c1Cn1c2[n+](c3ccc(C(F)(F)F)cc31)CCCCC2
    ?	0.4%	-13	1%
Cc1cc(C)cc(NC(=O)CSc2nnc(CNC(=O)c3ccco3)o2)c1
    0%	-3.7%	nt	1%

# (further entries)
# Below each compound – miR-21 reporter	Rango-impB inh	GLA inh pH 4.5	Rango dissoc inh
COc1ccc(-n2c(=O)[nH]c3cc(C(=O)NCCc4ccc(OC)c(OC)c4)ccc3c2=O)c(OC)c1
    0%	3.0%	nt	-14%
N#Cc1cnc2sc3ccccc3n2c1=N
    -46%	-3.5%	-1	-9%
CSc1nnc2n(-c3ccccc3)c(=O)c3c4c(sc3n12)CCC4
    -3%	0.6%	0	-6%
Cc1cccc(CS(=O)(=O)Cc2ccc(C(=O)NCC3CCCO3)o2)c1 (stereo not drawn)
    -6%	0.1%	2	5%
CC(C)CNC(=O)c1cccc(NC(=O)Cc2ccc(Cl)cc2)c1
    0%	-0.6%	0	-3%
COCCSc1nnc(NC(=O)C2CCCCC2)s1
    -35%	-0.9%	0	-9%
O=C1NC[C@@H](Cc2cccc3ccccc23)N(CCC23CC4CC(CC(C4)C2)C3)C1=O
    nt	?	nt	1%
COc1ccccc1N=c1c2c([N+](=O)[O-])cc([N+](=O)[O-])cc2n(O)n1-c1ccccc1OC
    -2%	nt	-4	nt
CCCCC(=O)Nc1ccccc1N1CCOCC1
    -4%	-0.5%	1	-2%
COCCOc1ccc(C(F)(F)F)cc1NC(=O)Cc1ccc(S(=O)(=O)N2CCOCC2)s1
    nt	-1.3%	nt	-1%
CC(=O)Nc1ccc(NC(=O)c2cccc3ccccc23)cc1
    -15%	0.8%	nt	6%
Cc1cc(Nc2ccccc2)n(-c2cccc(Cl)c2)n1
    -2%	2.3%	-27	-5%
CS(=O)(=O)N(CC(=O)NCCSCc1cccc(Cl)c1)c1ccccc1F
    2%	0.0%	nt	1%
Cn1nnnc1SCC(=O)Nc1ccccc1N1CCCCC1
    -3%	0.9%	-2	0%
CCSc1ncc(CO)c(N)n1
    -5%	0.5%	-12	?

# Compounds shown so far that have a CF3 group:
# Below each compound – miR-21 reporter	Rango-impB inh	GLA inh pH 4.5	Rango dissoc inh
Cc1cc(C(C)(C)C)cc(C)c1Cn1c2[n+](c3ccc(C(F)(F)F)cc31)CCCCC2
    ?	0.4%	-13	1%
COCCOc1ccc(C(F)(F)F)cc1NC(=O)Cc1ccc(S(=O)(=O)N2CCOCC2)s1
    nt	-1.3%	nt	-1%

# Next section:
# Below each compound – miR-21 reporter	Rango-impB inh	GLA inh pH 4.5	Rango dissoc inh
CN(C(=O)COC(=O)C1COc2ccccc2O1)C1(C#N)CCCCC1 (stereo not drawn)
    nt	1.6%	nt	-12%
O=C(NCC(=O)N(c1ccccc1F)C(C(=O)NC1CCCC1)c1ccco1)c1ccco1 (stereo not drawn)
    0%	3.1%	3	-12%
O=C(OCC(=O)N1CCCc2ccccc21)c1ccccc1[N+](=O)[O-]
    nt	-1.9%	nt	5%
Cc1ccc(OCC2Cn3c(nc4c3c(=O)[nH]c(=O)n4C)O2)cc1C (stereo not drawn)
    0%	1.3%	nt	6%
O=C(COc1ccccc1F)Nc1cc(S(=O)(=O)Nc2cccc(Cl)c2)ccc1O
    nt	-0.6%	nt	1%
O=C(C[n+]1ccc(/C=N/O)cc1)N1CCCCC1
    2%	-0.3%	-10	17%
O=C(Nc1ccc(N2CCCCC2)c(S(=O)(=O)Nc2ccccc2Cl)c1)c1cccnc1
    nt	-1.7%	nt	0%
COc1cc(/C=C2\SC(=S)N(CC(=O)Nc3ccc(O)cc3)C2=O)cc(OC)c1OC
    2%	3.9%	2	-10%
c1ccc(Oc2cccc(OCCCCN3CCCC3)c2)cc1
    -8%	-0.8%	-2	24%
CCN(CC)c1ccc(C(=O)NC(=S)Nc2cc(S(=O)(=O)N3CCOCC3)ccc2-n2cncn2)cc1
    -2%	-4.0%	-4	-5%
CCOc1ccc(C(CC(=O)O)NC(=O)CCCOc2ccc(Cl)cc2C)cc1 (stereo not drawn)
    2%	0.5%	-4	1%
CCN(CC)CCOc1ccccc1C(C)=O
    -1%	0.5%	-18	5%
Cc1cccc(N2C(=O)/C(=C\c3ccc(OC(F)F)cc3)c3ccccc3C2=O)c1
    0%	?	-8	?
CC(=O)c1ccc(S(=O)(=O)N2CCN(CCOc3ccccc3)CC2)cc1
    nt	-2.0%	nt	11%
O=S(=O)(c1ccc(-c2nnc(SCc3nnc(-c4ccccc4)o3)o2)cc1)N1CCCC1
    0%	0.5%	5	16%

# Next part:
# Below each compound – miR-21 reporter	Rango-impB inh	GLA inh pH 4.5	Rango dissoc inh
COc1ccc(NC(=O)c2cc(S(=O)(=O)NCC3COc4ccccc4O3)ccc2F)cc1 (stereo not drawn)
    2%	-4.8%	-2	0%
O=C(CSc1nnc(-c2ccccc2)n1-c1ccc(Cl)cc1)NNC(=S)Nc1ccccc1
    -6%	0.7%	-7	-9%
Nc1ccc(Cc2ccc(N)c(C(=O)O)c2)cc1C(=O)O
    1%	3.9%	4	5%
CCCCC(CC)C(=O)Nc1cc(C(=O)NCc2ccc(C)cc2)ccc1N1CCC2(CC1)CC(c1ccccc1)=NO2 (stereo not drawn)
    0%	-2.6%	nt	1%
CN(Cc1cccs1)c1ncnc2sccc12
    3%	-2.1%	14	-8%
O=C(NCCCn1ccnc1)Nc1ccc(Cl)cc1Cl
    -4%	2.0%	-5	3%
CC[C@@]1(C(=O)OC)N[C@H](CN(C)C(=O)NC(C)C)[C@@H]2C(=O)N(Cc3ccccc3)C(=O)[C@@H]21
    nt	-2.6%	nt	15%
COc1ccc(NC(=O)N2CCN(S(C)(=O)=O)CC2)cc1OC
    -2%	6.3%	-2	-19%
Cn1nc(-c2ccc(OCC(=O)NCC3CCCO3)cc2)c2ccccc2c1=O (stereo not drawn)
    10%	-0.6%	0	14%
COc1ccc(CCC(=O)NNC(=O)Nc2ccc(OC)c(OC)c2)cc1
    1%	-0.4%	nt	7%
Cc1nn(-c2ccccc2)c(C)c1C(=O)OCC(O)=C(C#N)c1nc2ccccc2[nH]1
    nt	?	nt	-19%
Brc1ccc(C2C3=C(Nc4ncnn42)c2ccccc2OC3c2ccncc2)cc1 (stereo not drawn)
    3%	0.4%	-10	-8%
COc1ccc(C(=O)Nn2c(SCC(=O)NCC3CCCO3)nc3ccccc3c2=O)cc1 (stereo not drawn)
    ?	1.2%	1	-15%
COc1ccc(NC(=O)C2CCCN(C(=O)Nc3ccc(OC)cc3)C2)cc1 (stereo not drawn)
    -15%	0.2%	nt	-1%
COCCNC(=O)c1cc(C(=O)CC(C)C)c[nH]1
    2%	4.2%	7	5%

# Additional results follow:
# Below each compound – miR-21 reporter	Rango-impB inh	GLA inh pH 4.5	Rango dissoc inh
COc1ccc(CCNC(=O)CSc2ccsc2[N+](=O)[O-])cc1OC
    6%	2.0%	-2	2%
CCOc1ccc2nc(NC(=O)Nc3cccs3)sc2c1
    -26%	?	3	0%
COc1ccc(OC)c(NC(=O)C2CCC(CNc3c(N4CCOCC4)c(=O)c3=O)CC2)c1 (stereo not drawn)
    -4%	0.9%	0	0%
CC(C)(C)S(=O)(=O)/C(C#N)=N/Nc1ccc(C#N)cc1
    11%	-1.2%	-22	-6%
CCOc1cc(S(=O)(=O)Nc2ccc(CC)cc2)ccc1Cl
    10%	-2.2%	-9	-5%
O=C(Oc1nsnc1N1CCOCC1)N1CCCC1
    nt	-1.6%	nt	0%
CCC1COCCS(=O)(=O)N1Cc1ccccc1C (stereo not drawn)
    -2%	-0.2%	nt	4%
O=C(NCc1ccco1)c1cnn2c1NC(c1ccccc1)CC2C(F)(F)F (stereo not drawn)
    3%	0.0%	1	-6%
CC(=O)Nc1ccc(C(=S)NCC2(N(C)C)CCCCC2)cc1
    -10%	3.4%	-4	8%
COc1ccc(CC2(CO)CCN(Cc3c(C)nn(C(C)C)c3C)CC2)cc1
    -1%	4.3%	-1	1%
O=C(CSc1nnc(-c2cccs2)n1CC1CCCO1)c1cc2ccccc2o1 (stereo not drawn)
    -11%	-0.1%	1	-5%
CCCNC(=O)Cn1nc(C(F)(F)F)c2c1CCC2
    -1%	-4.5%	-2	-15%
CC(O)CN(CCC(N)=O)CCC(N)=O (stereo not drawn)
    0%	2.8%	-8	-2%
CCOCC(=O)Nc1ccc2c(c1)N(S(=O)(=O)c1cccs1)CCC2
    nt	1.6%	nt	3%
Cc1ccc2oc(=O)c3cc(C(=O)NCc4ccco4)sc3c2c1
    -2%	-0.9%	0	14%

# Next records follow:
# Below each compound – miR-21 reporter	Rango-impB inh	GLA inh pH 4.5	Rango dissoc inh
CCC(C)c1ccc(NC(=O)COC(=O)CCNS(=O)(=O)c2cccs2)cc1 (stereo not drawn)
    nt	0.1%	nt	?
O=C(Nc1cccc(Cl)c1N1CCCC1)c1ccc(Br)o1
    -5%	0.3%	-6	7%
CC(Sc1nnc(COc2ccccc2)n1-c1ccccc1)C(=O)O (stereo not drawn)
    1%	-3.1%	nt	5%
CC(C)NC(=O)CSc1nc(-c2ccccc2)cs1
    -57%	-0.3%	-1	0%
CC1CCCC=CC2CC(OC(=O)CN(C)C)CC2C(O)C=CC(=O)O1 (stereo not drawn)
    nt	4.6%	nt	7%
CC(=O)N1CCN(S(=O)(=O)c2ccc(C)cc2)C1C(C)C (stereo not drawn)
    1%	2.1%	7	-7%
OC(CNCCNc1ncccc1C(F)(F)F)Cn1ccc2ccccc21 (stereo not drawn)
    -4%	?	0	0%
CC(C)CCN(C)C1CCN(C(=O)Nc2c(F)cccc2F)CC1
    2%	-0.5%	5	21%
O=C(C1=C(O)C(=O)N(Cc2ccccc2)C1c1ccncc1)c1ccco1 (stereo not drawn)
    -1%	-1.0%	3	-19%
CC(=O)[C@@]1(O)CCC2C3C=CC4=CC(=O)CC[C@]4(C)C3CC[C@@]21C (stereo partly drawn)
    nt	-1.3%	nt	1%
c1ccc(C2=Nn3c(nnc3-c3cccs3)SC2)cc1
    0%	-1.4%	-2	-11%
O=C(NC1CCCC1)C1c2ccccc2C(=O)N1C1CCCCC1 (stereo not drawn)
    0%	1.3%	-7	7%
Cc1ccccc1C(=O)c1cccn1CC(=O)NCc1cccc(Cl)c1
    -35%&-42%	-0.2%	nt	13%
COc1ccc(-c2cc(C(F)F)n3ncc(C(=O)N4CCc5ccccc5C4)c3n2)cc1
    -9%	?	5	-20%
